From PubChem BioAssay
Vaccinia mCherry = vaccinia inhibition (mCherry reporter); Vaccinia virus mCherry reporter infection, fluorescence; about a quarter of the inactives have no number; Potency, µM (top dose mostly 36.5 µM), without a hit: at the highest dose activity change, negative = inhibition, hits mostly inhibitors; 0.63% of 310,000 active; AID 720579; active = well fitted inhibition curve with a large enough effect; inconclusive = small, poorly fitted or top-dose-only effect; inactive = no such curve, though single readings can be large or run the other way; tested in A549 cells; further: nearly all actives have a fitted effect of over 35% in size; inactives centre near -10
VACV Venus inh = inhibitors of vaccinia virus (Venus reporter) | Vaccinia virus Venus reporter expression, fluorescence | Potency, µM (series often up to 36.5 µM), without a hit: top-dose activity change, negative = inhibition, most hits filed as inhibitors | 0.46% of 330,000 active | AID 720580; active means well fitted inhibition curve with a large enough effect; inconclusive means small, poorly fitted or top-dose-only effect; inactive means no such curve, though single readings can be large or run the other way; tested in A549 cells; further: nearly all actives have a fitted effect of over 30% in size; inactives centre near -10
Starred values were filed as active, the others as inactive; i = inactive; ? = inconclusive; . = not tested or not shown; [ ] = another dose, or the depositor's remark. On the % scale 0 is the no-effect control and ±100 the full control effect; potency means the concentration at half of the fitted maximal effect.

compound | Vaccinia mCherry | VACV Venus inh
Cc1ccccc1C(=O)NNC(=O)CCC(=O)Nc1cccc(Cl)c1C | i | -27%
O=C(CN1C(=O)/C(=C\C=C\c2ccccc2)SC1=S)Nc1ccc(F)cc1 | -3% | 6%
CSc1ccc(C2C(C#N)=C(N)Oc3cc4c(cc32)OCO4)cc1 (stereo not drawn) | ? | ?
COc1cccc(NC(=O)C(OC(=O)c2ccccc2NS(=O)(=O)c2cccs2)c2ccccc2)c1 (stereo not drawn) | i | 9%
C[C@]12c3[nH]c4ccc(Cl)cc4c3CCN1C(=O)[C@@H](CC(=O)NCCc1ccccn1)C[C@@H]2C(=O)N1CCOCC1 | i | -16%
CCOc1ccc(-c2nc3cc(NC(=O)COc4cccc(C)c4)ccc3o2)cc1 | -27% | ?
COc1ccc(CNC(=O)COC(=O)CC(NC(N)=O)c2ccc(Cl)cc2)cc1OC (stereo not drawn) | -2% | -5%
CN(C)c1ccc(-c2noc(C3CCN(C(=O)Nc4ccc(Cl)cc4)CC3)n2)cc1 | 0% | 6%
Cc1cc(C)cc(C(=O)NC(CC(N)=O)c2ccc(NC3CCCC3)c([N+](=O)[O-])c2)c1 (stereo not drawn) | i | -1%
COc1ccc2cc(S(=O)(=O)n3cnc(C)c3)ccc2c1 | -3% | -12%
O=C(O)Cn1cc(/C=C2\C(=O)NC(=O)N(c3ccc(Br)cc3)C2=O)c2ccccc21 | -12% | 31%[activator]
CCc1ccc(C(O)c2ncc(-c3cccc(C(F)(F)F)c3)[nH]2)cc1 (stereo not drawn) | -11% | -15%
CC(O)[C@@]1(O)CC[C@H]2[C@@H]3CC[C@H]4C[C@@H](O)CC[C@]4(C)C3=CC[C@@]21C (stereo partly drawn) | -4% | -24%
CC1/C(=N/O)C(CN(C)C)C2CC1C2(C)C (stereo not drawn) | -23% | -11%
O=C(CSc1nnc(-c2ccc(F)cc2)o1)N1CCCCC1 | -12% | -9%
O=C(NCCCN1CCCCC1)C1CCC(=O)N1CCc1ccccc1 (stereo not drawn) | . | 8%
COC(=O)C1=NN(C(=O)c2ccccc2)C(C)(O)C1 (stereo not drawn) | i | -5%
COc1ccccc1Nc1nc(-c2ccccc2Cl)c2cc(Br)ccc2n1 | 1% | 5%
CC(=O)c1cccc(NC(=O)CSc2nc(=O)n(CCN3CCOCC3)c3c2CCC3)c1 | -4% | -20%
N=c1n(CCN2CCOCC2)c2ccccc2n1CC(=O)c1cccc([N+](=O)[O-])c1 | -8% | -28%

Record cards, from the list above.
Record of COc1ccccc1Nc1nc(-c2ccccc2Cl)c2cc(Br)ccc2n1 → Vaccinia mCherry = 1%; VACV Venus inh = 5%
Record of COc1ccc2cc(S(=O)(=O)n3cnc(C)c3)ccc2c1 → Vaccinia mCherry = -3%; VACV Venus inh = -12%

New compounds follow.
compound | Vaccinia mCherry | VACV Venus inh
CCOC(=O)c1c(C)[nH]c(C)c1C(=O)CSc1nc2ccccc2n1CCOC | -14% | -8%
Cn1c(=O)c2c(nc(NCc3ccc4c(c3)OCO4)n2C)n(C)c1=O | -9% | -12%
CCCNC(=O)C1(CC2CC(c3ccccc3)=NO2)CCN(C(=O)c2ccccc2)CC1 (stereo not drawn) | -2% | -9%
CC1=C(C#N)C2(O)C(=O)c3ccccc3C2(O)N1 (stereo not drawn) | -11% | -9%
O=C1c2ccccc2-c2nc3ccccc3cc21 | 4% | -8%
Cc1ccc(C)c(C(O)c2ncc(-c3cccc(C(F)(F)F)c3)[nH]2)c1 (stereo not drawn) | -13% | -10%
CC(C)CCN1CCN(Cc2ccc(C#CCCO)cc2)CC1CCO (stereo not drawn) | -4% | -2%
Cc1cn(CCC(=O)Nc2ccccc2N2CCOCC2)c2ccccc12 | i | -16%
Cc1ccc(NC(=O)C(=O)NCc2ccc(/C=C(/C#N)C(=O)NCc3cccnc3)o2)cc1 | -12% | -13%
Cc1nc(CCNC(=O)CC2C(=O)NCCN2Cc2ccccc2F)sc1C (stereo not drawn) | -2% | -11%
O=C(CN1CCCc2ccccc21)N1CCc2ccccc21 | -16% | -10%
CCOC(=O)Cc1cnc(NC(=O)CSc2nc(C)cc(C)n2)s1 | -13% | -5%
CCNc1nc(NCC)nc(SCCOc2ccc(C)cc2)n1 | -7% | -17%
Cc1cccc(NS(=O)(=O)c2ccc(C(=O)NCCCN3CCCC3=O)cc2)c1C | -19% | -16%
O=C1c2ccccc2C(=O)N1N=Cc1ccc2c(c1)OCO2 | i | -13%
Cc1cccc(NC(=O)CSc2nc(C3CC3)nc3ccccc23)c1 | -28% | -24%
O=[N+]([O-])c1ccc(P(=O)(Cc2ccccc2)c2ccccc2O)cc1 (stereo not drawn) | -6% | -15%
COc1cc(CC(=O)NCCc2ccc(S(N)(=O)=O)cc2)cc(OC)c1OC | i | -8%
COc1ccc(NC(=O)C(=O)NCCc2csc3nc(-c4ccccc4C)nn23)cc1 | -13% | -25%
O=C(NCCc1ccccc1)C1COc2ccccc2C1 (stereo not drawn) | -12% | -15%
C=CCOC(=O)C1=C(C)NC(=O)NC1c1ccc(N(C)C)cc1 (stereo not drawn) | -14% | -15%
Cc1ccc(C)c(NC(=O)C(=O)NCc2ccccn2)c1 | i | -26%
Cc1onc(-c2ccccc2)c1-c1ccnc(N)n1 | -21% | -24%
Cc1ccc(S(=O)(=O)Nc2ccccc2C(=O)Nc2sccc2C(=O)NN(C)C)cc1 | i | -10%
O=C(NC(=S)Nc1ccccc1N1CCN(C(=O)c2ccccc2)CC1)c1ccccc1F | ? | -26%
O=C(O)CCN1CC2([N+](=O)[O-])CC=C(OCCO)C([N+](=O)[O-])(C1)C2 (stereo not drawn) | -15% | -6%
O=C(O)C(Cc1ccccc1)N1C(=O)c2cccc3cccc(c23)C1=O (stereo not drawn) | -7% | -13%
Cc1ccc(S(=O)(=O)NCC(C)n2nc(C)cc2C)cc1 (stereo not drawn) | -14% | 54%[activator]
CN(C)c1cccc(NC(=O)C2Cc3c(-c4cccnc4)ccnc3O2)c1 (stereo not drawn) | 14% | -12%
CCc1c(-c2ccc(OC)cc2)ncn1Cc1cccc(-c2ccccc2)c1 | ? | ?
Cc1ccc2[nH]cc(S(=O)(=O)c3ccc(C(C)C)cc3)c(=O)c2c1 | -14% | -18%
O=C(O)c1ccc(CSc2ccccn2)cc1 | i | -4%
Cc1c(C(=O)NCCN(C)C)oc2c1-c1nn(Cc3cccc(Cl)c3)cc1CC2 | -6% | -4%
C=CCn1c(NCCO)nc2sc3c(c2c1=O)CCC3 | -9% | -7%
COc1cc(OC)c(NC(=O)NCCn2nnc3cc(S(=O)(=O)N(C)C)ccc32)cc1Cl | 9% | 3%
C=CCn1c(SCC(=O)O)nnc1-c1ccc(C(C)(C)C)cc1 | . | -2%
O=C1CCC/C=C/C[C@@H](CC(=O)N(CCO)Cc2ccccc2)C(=O)NC[C@@H](c2ccccc2)O1 | -10% | -22%
CCc1c(-c2ccccc2)[n+](=O)c2c(n1[O-])CCC2 | -13% | -12%
O=C1NC[C@H](Cc2ccccc2)N(C[C@@H]2CCCN2C[C@H](Cc2ccccc2)N2C[C@H](Cc3ccccc3)N(CC3CCCCC3)C(=O)C2=O)C1=O | 7% | -14%
O=C(CNC(=S)N(Cc1ccccc1)Cc1ccccc1F)NCc1ccccc1 | -8% | -19%
COc1ccc(COC(=O)c2cc(S(=O)(=O)N3CCCCC3)ccc2N2CCOCC2)cc1 | -14% | -6%
Nc1cccc(CCc2nc3ccccc3[nH]2)c1 | -6% | -7%
Cc1ccc(C)c(NC(=O)CCN2CCC(C)CC2)c1 | i | -25%
CC(C)c1ccc(N(CC(=O)N/N=C/c2ccc(OC3CSC3)cc2)S(=O)(=O)c2ccccc2)cc1 | -6% | -2%
C/C1=C/CC(C)(C)/C=C/C/C(C)=C/CC1 | i | -20%
CCOC(=O)C1(Cc2cccc(F)c2)CCN(C(=O)c2cscn2)CC1 | i | 1%
COc1ccc(Nc2nc3c(S(=O)(=O)c4ccccc4)nnn3c3ccsc23)cc1OC | -20% | -10%
O=C(NCc1ccc2c(c1)OCO2)C1CCC(=O)N1C1CCCCC1 (stereo not drawn) | -23% | -14%
Cc1cnc(CNc2ccnc(-c3ccc(C(=O)N(C)C)cc3)n2)cn1 | -16% | -7%
COc1ccc(S(N)(=O)=O)cc1C(=O)OCC(=O)N1c2ccccc2NC(=O)C1(C)C | i | -2%
Cc1cccc(C)c1OCC(=O)N/N=C/c1cccn1C | ? | -6%
CC(=O)c1ccc(NC(=O)C2C3CCC(C3)C2C(=O)O)cc1 (stereo not drawn) | -17% | 5%
Cc1nc2ccccc2n1CCc1nc2c3ccccc3nc(SCc3ccc(C#N)cc3)n2n1 | -5% | 0%
COc1ccc(NC(=O)c2ccc3c(SCC(=O)O)c4c(nc3c2)CCCC4)c(OC)c1 | 1% | 3%
CCCOc1ccc(C(=O)Nc2nc(C)c(Cc3ccc4c(c3)OCO4)s2)cc1 | ? | 10µM*
O=C(Cc1c(F)cccc1Cl)OCC(=O)N1CCc2ccccc21 | -16% | -3%
Cc1ccc(S(=O)(=O)N(C)c2ccc(C(=O)NCC(c3ccco3)N3CCCC3)cc2)cc1 (stereo not drawn) | i | -25%
Cc1cccc(OCC(=O)Nc2ccc(OCc3cc(=O)n4cc(C)ccc4n3)cc2)c1 | -29% | -21%
Cc1ccc(Nc2c(-c3ccccc3O)nc3cnccn23)cc1 | -32% | -13%
COc1ccc(OC)c(NC(=O)COCc2cc(-c3ccc(F)cc3)on2)c1 | -10% | -10%

Looked up above.
Value of `Cc1cccc(OCC(=O)Nc2ccc(OCc3cc(=O)n4cc(C)ccc4n3)cc2)c1` under VACV Venus inh: -21%
Value of `C/C1=C/CC(C)(C)/C=C/C/C(C)=C/CC1` under VACV Venus inh: -20%
Value of `Cc1cccc(C)c1OCC(=O)N/N=C/c1cccn1C` under VACV Venus inh: -6%
Value of `O=C(NCc1ccc2c(c1)OCO2)C1CCC(=O)N1C1CCCCC1` (stereo not drawn) under VACV Venus inh: -14%
Value of `CC(=O)c1ccc(NC(=O)C2C3CCC(C3)C2C(=O)O)cc1` (stereo not drawn) under Vaccinia mCherry: -17%

Next results:
compound | Vaccinia mCherry | VACV Venus inh
Cc1ccc(Cn2ccccc2=N)cc1 | -8% | -8%
C=C(C)CNC(=S)NNC(=O)c1cc(C)oc1C | -13% | -8%
O=C(COC(=O)Cc1ccsc1)Nc1ccccc1Cl | -13% | -7%
Cc1ccc(NC(=O)CN(C)C(=O)CSc2nccn2C)cc1 | i | 0%
C=CC[N+](C)(C)C/C(Cl)=C(\Cl)c1ccccc1 | . | -26%
O=C(NCC1CCCO1)C1CCC(=O)N1Cc1ccc(F)cc1 (stereo not drawn) | i | -12%
COc1ccc(Cn2nnnc2C(c2cccs2)N2CCOCC2)cc1 (stereo not drawn) | . | -6%
C=CCC(CC(O)COCCC)C(=O)NNC(=S)Nc1ccccc1 (stereo not drawn) | -16% | 8%
CC(C)COC(=O)n1c(SCC(=O)N(C)C)nc2ccccc21 | -15% | -14%
COc1ccccc1N1C(=NC(=O)C2CCCCC2)SC2CS(=O)(=O)CC21 (stereo not drawn) | i | -7%
CC(C)(C)OC(=O)N1CCC(c2c(C(=O)NCc3ccc(F)cc3)cnn2-c2ccc(F)cc2)CC1 | -20% | -26%
COc1ccc(Cn2c(CCCO)nc3ccccc32)cc1OC | -11% | 8%
O=C(NN=C1CCCCCC1)NC1CCCCC1 | -12% | -4%
CC(C)c1ccc(C2=CC(c3cccc(Cl)c3)n3c(nc4ccccc43)N2)cc1 (stereo not drawn) | -6%[7.34 µM] | 20%[7.34 µM]
COc1ccc2nc(SCC(=O)NC3CCCCC3)[nH]c2c1 | -15% | -10%
O=C(C1=C(O)C(=O)N(c2ncccn2)C1c1ccc(F)cc1)c1ccco1 (stereo not drawn) | -9% | 1%
CN(C)CCCNS(=O)(=O)c1ccc(Oc2ncc(C(F)(F)F)cc2Cl)cc1 | ? | -29%
OCCC1CN(CC2CCCCC2)CCN1C1CCCC1 (stereo not drawn) | -10% | -8%
O=C(CCc1nc(-c2ccccc2)no1)NCC1CCCO1 (stereo not drawn) | -6% | 5%
COc1ccc(/C=C(\C#N)C(=O)OCC(=O)Nc2ccc(C(C)(C)C)cc2)cc1 | -9% | -5%
CN(C)[C@@H](CO)c1nnc([C@H](CCC(=O)O)NC(=O)C2CCNCC2)o1 | i | -3%
COc1ccc(NC(=O)Nc2ccc(N3CCOCC3)c3nonc23)c(OC)c1 | -5% | 18%
Cc1ccc(-n2c(C)cc(C=C(C#N)C#N)c2C)cc1 | -20% | -21%
Cc1ccc(/C=C(\C#N)C(=O)Nc2cc(C)ccc2C)cc1 | -15% | -9%
CSCCC(NC(=O)c1ccccc1Br)C(=O)NCC(c1ccco1)N1CCCCC1 (stereo not drawn) | -6% | -12%
CC(C)(C)c1cc(NC(=O)COC(=O)c2nccnc2N)n(-c2ccccc2)n1 | i | -6%

Outcome played no part in choosing rows (roughly 0.86% active in at least one column).
